HIV TAR-Tat = HIV-1 TAR-Tat binding disruption. HIV-1 TAR RNA, Tat peptide displacement FRET; hits give high values. z-score (concentration not given with the values). 100,000 tested, 0.6% active;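 note: score is relative to mean and SD of negative controls; some compounds called inactive have numbers as strong as hits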
CDC25B CDK2 inh = human CDC25B-CDK2/CyclinA binding inhibition. z-score (no concentration beside the values). P30305+P24941. HTRF CDC25B-CDK2/CyclinA binding, anti-His/anti-Flag; hits give high values. 94,000 tested, 0.72% active;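 note: score is relative to mean and SD of negative controls; strong numbers were not always called active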
Active calls of the source: *; . = no result given.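 Rule for the calls: active = z-score from 3 up in half or more of its runs; inactive = the rest.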 No enrichment for hits, and some 0.94% of all compounds hit somewhere here.

Every second line gives: HIV TAR-Tat, CDC25B CDK2 inh
COCCOC(=O)C1=C(C)Nc2nc3ccccc3n2C1c1ccc(F)cc1 (configuration not stated)
 : 0.44, -1.3
CNC(=O)Cn1c2ccccc2c2cn[nH]c(=O)c21
 : ., -0.57
CCNC(=O)N(CC)Cc1nc(-c2ccc(C)cc2)no1
 : -0.05, -2.2
Clc1ccc(-c2cn3cccnc3n2)cc1
 : -1.9, .
CCSc1nc2c(c(=O)n(C)c(=O)n2C)n1Cc1ccccc1C
 : 0.3, -2
CCOCCOC(=O)C1=C(C)NC2=C(C(=O)CCC2)C1c1ccc(SC)cc1 (configuration not stated)
 : 1.7, -0.46
CC(C)c1ccc2c(c1)-c1ccccc1S(=O)(=O)N2CC(=O)N1CCCC1
 : 0.49, -2.4
O=C1CC(c2ccccc2Cl)C2=C(CC(c3ccc(F)cc3)CC2=O)N1 (configuration not stated)
 : 1.1, -0.94
Cc1cc(F)ccc1S(=O)(=O)Nc1ccc(N2CCCS2(=O)=O)cc1
 : 0.18, .
Cc1nn(C)c(C)c1CNC(=O)Nc1ccc(Br)cc1F
 : 0.9, .
Cc1cc2c(cc1C)NC(c1coc3ccccc3c1=O)C1=C(CC(C)(C)CC1=O)N2 (configuration not stated)
 : -0.38, -1.9
C=CCn1c(C2CC(=O)N(Cc3ccc(F)cc3)C2)nc2ccccc21 (configuration not stated)
 : -1.4, 0.37
NC(=O)c1ccc2nc3ccsc3c(=O)n2c1
 : ., -1.7
COC(=O)c1ccc(C2c3c(oc4cc(C)c(C)cc4c3=O)C(=O)N2CCCN2CCOCC2)cc1 (configuration not stated)
 : 1.3, -1.8
Cc1ccc(-n2c(-c3cccnc3)n[nH]c2=S)cc1Cl
 : ., -2.4
O=C(NCCCN1CCCC1=O)c1ccc2cn[nH]c2c1
 : -0.82, .
COc1ccc(OC)c(Nc2nc3ccc(C)cc3n3cnnc23)c1
 : -0.07, -1.3
O=[N+]([O-])c1ccsc1N1CCS(=NS(=O)(=O)c2ccc(Cl)cc2Cl)CC1
 : ., 0.74
COc1ccc(C2CC(=O)N3CN(c4ccc(F)cc4)CSC3=C2C#N)c(OC)c1 (configuration not stated)
 : -2.1, 4.4*
CN(CC(=O)NCc1cccs1)S(=O)(=O)c1ccc2c(c1)NC(=O)CO2
 : 0.29, .
COc1nc2ccccc2nc1SCC(=O)NCc1ccco1
 : -0.14, -1.9
Cc1ccc(-c2csc3nc(N4CCOCC4)cc(=O)n23)cc1
 : -1.4, -1.8
NC(=O)c1c(NC(=O)CSc2nc3ccccc3o2)sc2c1CCCC2
 : -2.9, 1
O=C(CSc1nc2ncccc2o1)Nc1ccc(S(=O)(=O)N2CCCC2)cc1
 : 1.6, .
COc1ccc(Oc2ccc(C(=O)/C=C/N(C)C)cc2)cc1
 : ., -1.3
CCOC(=O)CC(=O)CSc1nc(N)c2c3c(sc2n1)CCC3
 : -0.21, -0.53
Brc1ccc(CSc2n[nH]c3nc4ccccc4n23)cc1
 : -1.1, 0.59
C/C(=N\NC(=O)c1cc(-c2cccc([N+](=O)[O-])c2)n[nH]1)c1ccccc1O
 : ., -1.4
Cc1ccc(C2N(c3ccc(Cl)cc3)C(=O)C3CCCN32)cc1 (configuration not stated)
 : -0.85, -0.7
CSc1nc(=O)c2c(n1C)NC(=O)CC2c1ccc(F)cc1F (configuration not stated)
 : 1.7, -1.3

Next part, overlapping the part above by 6 compounds.
Every second line gives: HIV TAR-Tat, CDC25B CDK2 inh
COc1ccc(Oc2ccc(C(=O)/C=C/N(C)C)cc2)cc1
 : ., -1.3
CCOC(=O)CC(=O)CSc1nc(N)c2c3c(sc2n1)CCC3
 : -0.21, -0.53
Brc1ccc(CSc2n[nH]c3nc4ccccc4n23)cc1
 : -1.1, 0.59
C/C(=N\NC(=O)c1cc(-c2cccc([N+](=O)[O-])c2)n[nH]1)c1ccccc1O
 : ., -1.4
Cc1ccc(C2N(c3ccc(Cl)cc3)C(=O)C3CCCN32)cc1 (configuration not stated)
 : -0.85, -0.7
CSc1nc(=O)c2c(n1C)NC(=O)CC2c1ccc(F)cc1F (configuration not stated)
 : 1.7, -1.3
Cc1cc2n(n1)CCC(=O)N2CCCC(=O)NCCCN1CCOCC1
 : 0.93, .
CN1C(=O)c2ccccc2C(C(=O)NCCCN2CCCCCC2)C1c1cn(C)c2ccccc12 (configuration not stated)
 : ., -0.69
O=C(NC1CCCc2ccccc21)c1ccc2c(c1)OCCO2 (configuration not stated)
 : 1.6, .
O=c1cc(O)c2cc([N+](=O)[O-])ccc2n1CCc1ccccc1
 : ., -1.5
COc1cc2nc(=S)n3c(c2cc1OC)NC(CCC(=O)O)C3=O (configuration not stated)
 : ., -0.97
CCc1nnc2c(NCCOC)nc3ccccc3n12
 : -1.2, .
Nc1[nH]nc(Nc2cccc(Cl)c2Cl)c1C(=O)c1cccs1
 : ., -2.3
Cn1cc(S(=O)(=O)N2CCCC2)cc1C(=O)N1CCc2ccccc21
 : 0.82, .
C=CCn1c(SCCO)nc2c(c1=O)C1(CCCCC1)Cc1ccccc1-2
 : 1.4, 1.5
CC1(C)C=C(c2ccccc2)c2c(c3ccccc3c3ccccc23)C(c2ccccc2)=C1
 : ., -1.3
CC1(C)Cc2nc3sc(C(=O)NCCCO)c(N)c3cc2CO1
 : 0.57, -1.6
Cc1nn(-c2ccc(N3CCCCC3)nn2)c(C)c1CCC(=O)O
 : -0.31, -0.03
Cc1c(CNCCc2cccs2)c(C(=O)O)c(C)n1-c1ccc(Cl)cc1
 : 1.3, .
Cc1c(C(=O)Nc2cccc3cccnc23)oc2ccc(F)cc12
 : 1.9, 0.1
CCCCCCCCCCCC1SC[C@@H](C(=O)O)N1C(C)=O (some centres not stated)
 : ., -0.16
Cc1cccc(CCNc2nnc(C)c3nnn(Cc4ccc(F)cc4)c23)c1
 : 1, -1.2
O=C(O)c1ccc2c(c1)C(=O)N(C1CCCCC1)C2=O
 : ., -0.75
CN(CCNc1nc(-c2ccccc2F)no1)C1CCCCC1
 : 1.4, .
C=CCOC(=O)C1=C(C)Nc2[nH]c(=O)[nH]c(=O)c2C1c1ccc(C)cc1 (configuration not stated)
 : ., 0.04
O=C(CSc1nc2nccnc2c(=O)n1Cc1cccs1)Nc1ccc(Br)cc1
 : 0.85, .
CC1CCCN(c2cc(N3CCN(C)CC3)c3noc4c3c2C(=O)c2ccccc2-4)C1 (configuration not stated)
 : -3.9, 1.4
CCc1nc(SCC(=O)N2CCc3ccccc32)c2c(=O)n(C)c(=O)n(C)c2n1
 : -1, .
c1ccc2c(c1)CN(CCN1CCCC1)C2
 : ., -1.1
CC(C)CN(CC(C)C)C(=O)CSc1nc2ccccc2[nH]1
 : -0.57, -0.59
O=C1CCc2cc(S(=O)(=O)N3CCc4ccccc43)cc3c2N1CCC3
 : 1.1, .
COC(=O)c1c(NC(=O)C2=Cc3ccccc3OC=C2)sc(C)c1C
 : -0.68, -0.98
Cn1nnnc1SCCCNCc1cccc(OCc2ccccc2Cl)c1
 : 1.7, -0.9
COc1ccc(CCNS(=O)(=O)c2ccc(-c3cc(C)no3)s2)cc1OC
 : 0.12, .
COC(=O)c1cn(C(=O)c2cnn3c(C(F)F)cc(-c4ccc(OC)cc4)nc23)c2ccccc12
 : 3.2, -1.2
CC(Oc1ccccc1Cl)c1nc2ccccc2[nH]1 (configuration not stated)
 : 2, -1.4

(cont.)
Every second line gives: HIV TAR-Tat, CDC25B CDK2 inh
O=C(c1cccs1)N1CCCCC1c1ccccn1 (configuration not stated)
 : ., -1.6
CC(C)c1ccc(Nc2ncnc3c2nc2n3CCCCC2)cc1
 : 0.83, .
CCOc1ccc(CNS(=O)(=O)c2cn(C)cn2)cc1
 : 1.8, .
CSc1ccc(-c2ncnn2-c2cccc(Cl)c2C)cc1
 : -0.72, -1.1
COc1cc(-c2cc(C(F)(F)F)n3ncc(C(=O)NCc4cccnc4)c3n2)cc(OC)c1OC
 : ., -0.8
CCCCNc1c(-c2ccc(C(C)C)cc2)c(=O)c1=O
 : 3.7, .
O=S(=O)(c1ccc(Cl)cc1)n1nc(-c2cccnc2)nc1NCc1ccc(F)cc1
 : -0.44, 0.28
O=C(Cn1cnc(S(=O)(=O)N2CCCC2)c1)N1CCn2c1nc1ccccc12
 : 1.1, .
COc1cc(NC2=NS(=O)(=O)C(c3ccc(C)c(C)c3)=C2C)cc(OC)c1
 : 1.2, -3.3
O=C(CSC1=NS(=O)(=O)c2ccccc2N1Cc1ccccc1)N1CCCC1
 : 2.2, .
O=C(Cn1ncc2c(=O)oc3ccccc3c21)NCCc1c[nH]c2ccccc12
 : 1, -0.37
COC(=O)c1c(C)oc2cc(Br)c(OCc3ccccc3)cc12
 : 1.9, -2.3
COc1cc2nc(=S)n3[nH]c(C(C)Oc4ccc(Br)cc4)nc3c2cc1OC (configuration not stated)
 : ., -1.5
CN(C(=O)Cn1cnc2nc3c(cc2c1=O)CCCC3)c1ccc(Br)cc1
 : -0.33, .
CCCn1cnc2c3nsnc3ccc21
 : 0.41, 0.33
CCOC(=O)c1c(N)n(-c2ccccc2OCC)c2nc3ccccc3nc12
 : ., -2.4
Cc1cc2c3c([nH]c2cc1S(=O)(=O)N1CCN(c2ccccc2)CC1)CC(C)(C)CC3=O
 : 1.7, .
Cc1csc(NC(=O)Cc2csc(-n3nc(C)c(Cl)c3C)n2)n1
 : -1.6, -0.68
CCOc1ccc(S(=O)(=O)n2ccnc2)cc1C
 : 1.6, -1
Cc1cccc(OCCCn2c(C3CCCO3)nc3ccccc32)c1 (configuration not stated)
 : 1.4, -0.16
Cn1cnc(S(=O)(=O)N2CCCC(CN3CCc4ccccc4C3)C2)c1 (configuration not stated)
 : 2.3, .
O=C(C1CCC1)N1CCc2cc(S(=O)(=O)N3CCc4ccccc4C3)ccc21
 : ., -3.3
NC(=O)CNCCC(c1ccccc1)c1ccccc1
 : ., -0.59
CCCc1c(C)nc2ncnn2c1Nc1ccc(F)cc1C
 : 0.99, -0.35
O=C(Nc1ccc(Cl)cn1)c1sc2ccccc2c1Cl
 : 1.2, -1.9
O=C(Cc1cccs1)Nc1ccc(SCc2nc3ccccc3[nH]c2=O)cc1
 : -1.9, .
CCCCc1nnc(SCc2cc(=O)c3cc(C(=O)OCC)ccc3[nH]2)n1C
 : 1, .
CCn1cc(S(=O)(=O)c2ccc(OC)cc2)c(=O)c2cc(F)c(N3CCC(C)CC3)cc21
 : 1.2, .
CC(C)n1c(SCC(=O)c2ccc3c(c2)OCCO3)nnc1-c1ccc2c(c1)OCCCO2
 : 2.6, .
COc1ccc(S(=O)(=O)Nc2ccc3oc4c(c3c2)C(=O)CCC4)cc1
 : -0.44, -0.88

Going on with the list.
Every second line gives: HIV TAR-Tat, CDC25B CDK2 inh
CCCN1CCN(c2nc(NCc3ccc(F)cc3)c3cnn(C)c3n2)CC1
 : 1.2, .
CN1CCN(c2nc3c(-c4cccc(F)c4)nnn3c3ccc(Cl)cc23)CC1
 : 1.4, 0.23
O=c1c(S(=O)(=O)c2ccc(F)cc2)c[nH]c2ccccc12
 : ., -2.6
O=C(O)c1cc2ccccc2c(=O)s1
 : -0.38, -1.8
Cc1onc(-c2c(Cl)cccc2Cl)c1C(=O)c1ccccc1
 : ., -1.1
CC1N=C2c3ccccc3N=C(SCC(=O)N3CCN(c4ccccc4F)CC3)N2C1=O (configuration not stated)
 : 1.6, .
Nc1c(C(=O)c2ccccc2)sc2nsc(SCCN3CCCC3)c12
 : ., -0.69
OCCN1CCN(c2ncnc3c2cnn3-c2cccc(Cl)c2)CC1
 : 0.44, .
O=C(Nc1ccc2c(c1)OCO2)c1[nH]nc2c1COc1ccccc1-2
 : -0.39, .
Cc1ccc(C(=O)OC2=CN(Cc3ccccc3)S(=O)(=O)c3ccccc32)cc1
 : 0.65, -1.6
O=c1cc(CSc2nc3ccccc3c3nc(-c4ccccc4)nn23)nc2ccc(Cl)cn12
 : ., -0.35
CC(C)CN(CCNS(=O)(=O)c1csc(C(N)=O)c1)CC(C)C
 : 0.08, .
O=C(Nc1cccc(OCc2cc(=O)n3nc(C4CC4)sc3n2)c1)c1cccs1
 : 1.2, 0.61
c1ccc(-c2nnc3ccc(NCCCN4CCOCC4)nn23)cc1
 : ., -0.79
O=C1CC(c2ccco2)Cc2c1cnn2-c1nc2ccccc2s1 (configuration not stated)
 : -0.92, -2.6
CCC(C(=O)Nc1cc(F)ccc1F)n1nc(C)c2sc3ccccc3c2c1=O (configuration not stated)
 : 2.6, -2.1
CCN1CCC2(CC1)OC(=O)C(C)=C2C(=O)N1CCN(c2ncccn2)CC1
 : 0.86, .
COc1ccc(N2CCN(c3csc4ccc(Cl)cc4c3=O)CC2)cc1
 : -2.8, .
CS(=O)(=O)Nc1nc2ccc(NC(=O)NCC3CCCO3)cc2s1 (configuration not stated)
 : 1.1, .
Cn1cc(S(=O)(=O)c2ccc(Cl)cc2)c(=O)c2cc(F)c(N3CCCCC3)cc21
 : 0.94, .
Cc1cc(NC(=O)c2ccccc2)no1
 : ., -2.9
Cn1cnc([N+](=O)[O-])c1N1CCN(C(c2ccccc2)c2ccccc2)CC1
 : ., -2.3
CCC1C2=C(CCCC2=O)NC2=C1C(=O)CCC2
 : ., -0.44
Cc1[nH]n2c(=O)c3c(nc2c1-c1ccc(Cl)cc1)CCC3
 : 0.67, -2.2
CCOc1ccc(C2CC(=O)C3=C(C2)NC(C)=C(C(=O)OC)C3c2ccc3c(c2)OCO3)cc1OC (configuration not stated)
 : -0.49, -0.77
CCC(Oc1ccccc1)C(=O)NC1C(=O)N2C1SC(C)(C)C2C(=O)O (configuration not stated)
 : ., 0.09
CCOC(=O)C1CCCN(C(=O)c2sc3nc4n(c(=O)c3c2C)CCCCC4)C1 (configuration not stated)
 : 1.7, .
Cc1ccc(C)c(S(=O)(=O)Nc2cc(-c3c(O)ccc4ccccc34)c(O)c3ccccc23)c1
 : ., -1.1
CN(C(=O)c1cc2ccccc2c(=O)s1)c1ccccc1
 : -0.15, -1.2
COc1cc(OC)c(N(C)C(=O)Nc2cn(CC(C)C)c(=O)c3ccccc23)cc1Cl
 : 1.5, .

Screening results (PubChem BioAssay)
